GIV-Gai inh: GIV-Galpha-i interaction inhibition. P08753. Galpha-i3/FITC-GIV peptide fluorescence polarization, 90 min; hits give low values; scaled: aluminum fluoride 0%, vehicle 100%. percent of control (FP), % (no concentration beside the values). 210,000 tested, 0.42% active. AID 1224905;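 active means replicate mean at 85% of control or lower, very high polarization wells dropped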;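 further: wells of about 15 µL received 100 nL stock; the first replicate is given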
Target sequence (P08753 whole entry, looked up): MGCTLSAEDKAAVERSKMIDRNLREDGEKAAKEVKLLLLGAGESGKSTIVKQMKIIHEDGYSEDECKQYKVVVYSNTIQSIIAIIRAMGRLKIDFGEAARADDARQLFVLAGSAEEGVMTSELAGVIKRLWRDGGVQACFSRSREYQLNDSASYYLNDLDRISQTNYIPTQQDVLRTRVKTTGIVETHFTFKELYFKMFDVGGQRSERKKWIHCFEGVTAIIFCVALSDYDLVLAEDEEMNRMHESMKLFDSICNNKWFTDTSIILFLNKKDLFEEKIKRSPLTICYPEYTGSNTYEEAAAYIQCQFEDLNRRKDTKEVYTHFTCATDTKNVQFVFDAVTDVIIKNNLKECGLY
* hit, by the source's call. The list is partial. The share of hits here may be higher or lower than overall.

SMILES	GIV-Gai inh
Cc1nc(CNC(=O)[C@H]2CSCN2S(=O)(=O)c2ccc(F)c(Cl)c2)cs1	99
O=C(c1ccoc1)N1CCC(c2nc(C3CC3)n[nH]2)CC1	107
COc1ccccc1C1Nc2ccc(Cl)cc2C(c2ccccc2)O1 (stereo not drawn)	102
CCCn1nnc2cc(-c3noc(CN4C(=O)COc5ccccc54)n3)ccc21	103
COc1cccc(/C=C2/SC(N3CCN(C4=NC(=O)/C(=C\c5cccc(OC)c5)S4)CC3)=NC2=O)c1	107
COc1ccc(-c2nc3c4ccccc4n(CC(=O)c4ccc(OC)c(OC)c4)c(=O)n3n2)cc1	102
CN(C)c1ccc(/C=C2\SC(N3CCN(C(c4ccccc4)c4ccccc4)CC3)=NC2=O)cc1	116
O=C(CSc1nnc(-c2ccccc2)c(-c2ccccc2)n1)N1CCOCC1	107
CCc1cc2c(Nc3ccccc3F)ncnc2s1	103
O=S(=O)(Nc1ccc(Oc2nc3ccccc3n3cnnc23)cc1)c1cccc2nsnc12	95
COc1ccccc1N1CCN(S(=O)(=O)c2cc(-c3cc(C(F)(F)F)on3)sc2C)CC1	99
COc1ccc(C=O)cc1CSc1ncccc1C(=O)O	106
CCOC(=O)C1=C(CSc2nc3c(cc2C#N)CCC3)OC(N)=C(C#N)C1c1cccc(OCc2ccccc2)c1 (stereo not drawn)	123
CCOc1ccc(NC(=O)c2sc(=S)n(-c3cccc(OC)c3)c2N)cc1	105
CC12CCC(C(=O)N(c3cccc(O)c3)C1=O)C2(C)C (stereo not drawn)	116
OC1(c2ccc(Cl)cc2)CN(c2ccccc2)C2=[N+]1CCCS2 (stereo not drawn)	104
COc1ccccc1C(=O)N1c2ccccc2N2C(c3c(C)c(C)cc(C)c3C)=NON12	112
COc1ccc(CNC(=O)C2Cc3ccccc3CN2S(=O)(=O)c2ccc(C)cc2)c(OC)c1 (stereo not drawn)	102
CCCCSc1nnc2c3ccccc3n(C)c2n1	102
Cc1ccc(-c2noc(C3CC3)n2)cc1S(=O)(=O)Nc1ccc(-c2ccno2)cc1	102
N#CC1=C([S-])N[C@@](O)(c2ccccc2)[C@H]([n+]2cccc3cc(Cl)ccc32)[C@H]1c1ccc(F)cc1	113
Cc1ccc(-n2nnc3c4c(c(NC5CCCCC5)cc32)C(=O)c2ccccc2C4=O)cc1	109
CC(=O)C1=NN(c2ccccc2)C(c2cccc(OCc3ccc(Cl)cc3)c2)N1c1ccc(F)cc1 (stereo not drawn)	109
CCCNC(=O)N1CCC(c2cc3n(n2)CCCN(CC)C3=O)CC1	98
O=c1[nH]c2cc(Cl)c(S(=O)(=O)Nc3ccc4c(c3)OCCO4)cc2[nH]1	107
Cc1ccc(S(=O)(=O)NCc2ccc(-c3nn4cnnc4s3)cc2)cc1	105
CCCCNc1nc(SCC(=O)N2CCN(c3ccccc3)CC2)nc2ccccc12	110
Cc1ccc(-c2cc(N3CCN(C(=O)c4ccc(C)cc4C)CC3)ncn2)cc1	100
O=c1c(S(=O)(=O)N2CCCCCC2)cccn1Cc1cc(F)cc(F)c1	106
COc1ccc(OC)c(C2NC(=O)NC(C)=C2C(=O)Nc2ccc(Br)cc2)c1 (stereo not drawn)	102
Cc1nc(CN2C(=O)COc3ccc(S(=O)(=O)N4CCN(C5CCCCC5)CC4)cc32)no1	103
CCCc1cc(N2CCN(C(=O)C3CCOC3)CC2)nc2nnc(CC)n12 (stereo not drawn)	105
CCc1ccc(NC(=O)CSc2nc3cc(C(=O)NCC4CCCO4)ccc3c(=O)n2Cc2ccco2)cc1 (stereo not drawn)	98
O=C(NC1CCCCC1)C1CCN(S(=O)(=O)c2ccc(-c3noc(C4CC4)n3)cc2)CC1	105
CCC(C)(C)NS(=O)(=O)c1cc(-c2nnc(C)o2)cs1	102
CC1(C)OC2OC(C(=O)Nc3ccc(Cl)cc3)C3OC(C)(C)OC3C2O1 (stereo not drawn)	102
CC(C)CC(=O)N1CCOc2ccc(COCc3cccc(F)c3)cc2C1	102
COc1cc(C2Nc3cccc4cccc(c34)N2)ccc1O	113
Cc1ccc(N/C(SCc2ccccc2)=C(/C(Cl)=C(Cl)Cl)[N+](=O)[O-])c(C)c1	109
Cc1cc(C)cc(NC(=O)N2CCN(Cc3cc(=O)n4nc(-c5ccccc5C)sc4n3)CC2)c1	100
O=C1/C(=C/c2ccc(-c3ccc([N+](=O)[O-])cc3)o2)C=C(c2ccccc2)N1c1cccc(Br)c1	121
COc1cc(NC(=O)c2cc([N+](=O)[O-])ccc2N2CCCCCC2)c2ncccc2c1	101
O=C(c1ccc2cccc(O)c2n1)N1CCN(Cc2ccc3c(c2)OCO3)CC1	97
CC1(C)CC(=O)C2=C(C1)Nc1[nH]c(=O)[nH]c(=O)c1C2c1ccc(F)cc1 (stereo not drawn)	113
O=C(CSc1nnc(-c2ccccc2)c(-c2ccccc2)n1)Nc1ccc(F)cc1	104
Cc1cc(C)c(S(=O)(=O)Nc2cccc(C(=O)N3CCCC3C(=O)NC3CCCC3)c2)cc1C (stereo not drawn)	105
CCN1CCN(c2ncnc3sc(C(=O)Nc4cc(Cl)ccc4OC)c(C)c23)CC1	109
CCOC(=O)C1=C(C)NC2=C(C(=O)c3ccccc32)C1c1cc(Br)c(OC)c(OC)c1 (stereo not drawn)	108
CC(=O)N1CCC2(CC1)NC(=O)c1ccccc1O2	98
CC(C)CNC(=O)c1ccc(-c2ccc(N3CCCC3)nn2)cc1	101
CCN1C(=O)CC(C(=O)Nc2ccc(Cl)cc2)SC1=Nc1ccc(Br)cc1 (stereo not drawn)	97
Cc1c(Cl)cccc1NC(=O)CCc1nc(CSc2nc(-c3ccccc3)cs2)no1	108
CCCOc1ccc(C2CC(=O)Nc3c2cnn3-c2ccc3nnc(C)n3n2)cc1OC (stereo not drawn)	98
O=C(NCCc1ccc(Cl)cc1)c1nnc(-c2ccc(S(=O)(=O)N3CCCC3)cc2)o1	102
O=C1CCCc2c1cc(C(=O)NCc1ccccc1Cl)c(=O)n2-c1ccc(F)cc1	99
CC1=C(C(=O)OCCc2ccccc2)C(c2ccc(Cl)cc2Cl)CC(=O)N1 (stereo not drawn)	102
O=c1c2ccc(F)cc2ncn1C1CCN(S(=O)(=O)c2ccc(F)cc2F)CC1	106
CC1CC(C)CN(CC2CCN(C(=O)Nc3ccc(Br)cc3)CC2)C1 (stereo not drawn)	108
O=C(C1CCCN(c2ccc3cc(S(=O)(=O)N4CCCC4)ccc3n2)C1)N1CCc2ccccc21 (stereo not drawn)	102
O=S(=O)(NC1CCCCC1)c1ccc(-c2cnc(C3CCC3)o2)s1	104
The listing continues.
SMILES	GIV-Gai inh
COc1ccccc1N1CCN(C(=O)c2ccc3c(=O)n(Cc4ccco4)c(=S)[nH]c3c2)CC1	110
Cc1nc(N2CCCCC2)c2c(C)c(C(=O)N3CCN(c4ccc([N+](=O)[O-])cc4)CC3)sc2n1	110
O=C(Nc1cc(F)ccc1F)c1ccc(=O)n(Cc2cccc(F)c2)c1	108
COc1ccc(OC)c(S(=O)(=O)N2CCc3c([nH]c4ccccc34)C2c2ccccc2)c1 (stereo not drawn)	104
Cc1ccc2c(c1)N(C(=O)C1CCOC1)CC(C)O2 (stereo not drawn)	104
CNC(=O)N1CCC(n2cnc3ccccc32)CC1	99
CCC(Sc1nc2cc(C(=O)OC)ccc2c(=O)n1Cc1ccc2c(c1)OCO2)C(=O)NCc1cccnc1 (stereo not drawn)	120
CCOC(=O)c1c(S(=O)(=O)N2CCC(C(=O)Nc3ccc4c(c3)OCO4)CC2)c(C)n(C)c1C	101
CCC(CC)N1CCN(C(=O)c2nc(N3CCSCC3)c3cn(C)nc3n2)CC1	103
O=C1Nc2ccc(S(=O)(=O)NCc3ccccc3)c3cccc1c23	116
CC(C)(C)C1CCc2c(sc3nc(-c4ccccc4F)oc(=O)c23)C1 (stereo not drawn)	103
O=C(NC1CC1)C1CCN(S(=O)(=O)c2ccc(-c3noc(C4CC4)n3)cc2)CC1	112
COc1ccc(CCNC(=O)c2sc3ncn(CC(=O)N4CC(C)CC(C)C4)c(=O)c3c2C)cc1OC (stereo not drawn)	104
Cc1cccc(-c2cc(N3CCN(C(=O)COc4ccc(Cl)cc4)CC3)ncn2)c1	110
O=C(NCC1CCCO1)c1ccc2c(=O)n(Cc3ccco3)c(SCc3ccc([N+](=O)[O-])cc3)nc2c1 (stereo not drawn)	100
O=C(Nc1ccccc1C(=O)N1CCN(c2ccccc2)CC1)c1cccc(S(=O)(=O)N2CCCCCC2)c1	101
Cc1nc(-c2ccc(C)c(-n3cc(C(=O)Nc4cc(Cl)ccc4C)c(C)n3)c2)no1	95
C(=C\c1ccccc1)/CSc1nnc2c(n1)[nH]c1ccccc12	108
O=C1c2ccccc2-c2nc3ccccc3cc21	106
CCc1ccc(Oc2cc(N3CCC(C(=O)Nc4ccc(C)c(C)c4)CC3)ncn2)cc1	98

Quoted at random: 3 records from the list.
SMILES	GIV-Gai inh
Cc1cccc(-c2cc(N3CCN(C(=O)COc4ccc(Cl)cc4)CC3)ncn2)c1	110
O=C(Nc1cc(F)ccc1F)c1ccc(=O)n(Cc2cccc(F)c2)c1	108
CCC(CC)N1CCN(C(=O)c2nc(N3CCSCC3)c3cn(C)nc3n2)CC1	103

Next records follow:
SMILES	GIV-Gai inh
N#CC1=C(N)Oc2cc(O)ccc2C12C(=O)Nc1ccccc12 (stereo not drawn)	116
CCOc1ccccc1CN1CCCC1c1c(C)noc1CC (stereo not drawn)	103
COc1ccc(CCNS(=O)(=O)c2ccc(F)c(C(=O)Nc3cccc(Cl)c3Cl)c2)cc1OC	107
O=C1COc2ccc(S(=O)(=O)Nc3ccc(F)c(F)c3)cc2N1Cc1noc(C2CCC2)n1	101
CCn1c(SC)nnc1-c1nn(C)c2c1CN(C(=O)C1CC1)CC2	99
CC(C)CN1CCN(S(=O)(=O)c2cc(-c3nnc(C4CCCC4)o3)co2)CC1	100
Cc1c(C(=O)Nc2nc3ccccc3s2)sc2ncn(Cc3cccc(F)c3)c(=O)c12	101
O=S(=O)(c1cc(-c2nnc(C3CCC3)o2)co1)N1CCN(c2ccc(F)cc2)CC1	99
C=CCNc1nc(Nc2ccc([N+](=O)[O-])cc2)nc(N2CCOCC2)n1	106
CC(C)(C)c1ccc(Oc2ccc3noc4c3c2C(=O)c2ccccc2-4)cc1	112
Cc1[nH]n(-c2cccc(Cl)c2)c(=O)c1C=Nc1ccccc1Cl	110
Cc1nc(-c2cc(S(=O)(=O)NCc3ccc(Br)cc3)c(C)s2)cs1	96
CCOC(=O)c1c(NC(=O)CSc2nnc(CNC(=O)COc3ccc(Cl)cc3Cl)n2C)sc2c1CCC2	102
CCSc1nnc(-c2nn(C)c3c2CN(S(=O)(=O)Cc2ccccc2Cl)CC3)n1CC	104
COc1ccc(N2C=NS(=O)(=O)c3cccnc32)cc1OC	105
CN(C)c1nc(Nc2cccc(Cl)c2)c2cnn(-c3ccccc3)c2n1	103
CCCC(=O)N(c1ccc2oc(C)c(C(=O)OCC)c2c1)S(=O)(=O)c1ccc(Cl)cc1	109
CCOc1ccc(C2C(N3C(=O)c4ccc([N+](=O)[O-])cc4C3=O)C(=O)N2c2ccc(Cl)cc2)cc1 (stereo not drawn)	100
CC1(C)CC(=O)C2=C(C1)c1c(ccc3ccccc13)NC2c1cn(Cc2ccc(Cl)cc2Cl)nc1-c1ccccc1 (stereo not drawn)	114
Cn1nc(COCc2ccccc2)c2c1CCN(S(=O)(=O)c1cccc(C(F)(F)F)c1)C2	102
COc1ccc(COC(=O)C2=C(C)NC3=C(C(=O)CC(c4cccs4)C3)C2c2ccc3c(c2)OCO3)cc1 (stereo not drawn)	112
CCOc1ccc(-c2cc3n(n2)CCCN(S(=O)(=O)c2cnn(CC)c2)C3)cc1	102
CCOc1ccccc1N1CCN(C(=O)CSc2nccnc2Oc2ccc(C)cc2)CC1	114
CCOC(=O)CN1C(=S)N=C(Nc2ccccc2)C12CCCCC2	112
CCOc1ccc(-n2c(=S)sc3c2nc(SCc2cc(=O)n4cc(Cl)ccc4n2)n2c4ccccc4nc32)cc1	114
Cn1c(SCc2ccc(Br)cc2F)nc2c(=O)[nH]cnc21	101
CN1C(=O)c2ccccc2Sc2cc(-c3noc(CN4C(=O)COc5ccccc54)n3)ccc21	99
COC(=O)CSc1nc2ccccc2nc1Cc1ccc(F)cc1	105
CCOc1ccc(-n2nnnc2CNC(=O)NCc2ccc(Cl)cc2)cc1	101
O=C(NCCC1=CCCCC1)c1ccc(Oc2ccnc(-c3ccc(F)cc3)n2)cc1	98
CCN(CC)C(=O)N1c2ccccc2C=Cc2ccccc21	102
O=C(COC(=O)C(Cc1c[nH]c2ccccc12)NC(=O)c1ccc(Br)cc1)c1ccccc1 (stereo not drawn)	103
CCCOc1ccc(CN2CCCC2c2c(C)noc2C)cc1 (stereo not drawn)	106

Among those listed so far, 14 have two or more sulfur atoms.
SMILES	GIV-Gai inh
Cc1nc(CNC(=O)[C@H]2CSCN2S(=O)(=O)c2ccc(F)c(Cl)c2)cs1	99
COc1cccc(/C=C2/SC(N3CCN(C4=NC(=O)/C(=C\c5cccc(OC)c5)S4)CC3)=NC2=O)c1	107
O=S(=O)(Nc1ccc(Oc2nc3ccccc3n3cnnc23)cc1)c1cccc2nsnc12	95
COc1ccccc1N1CCN(S(=O)(=O)c2cc(-c3cc(C(F)(F)F)on3)sc2C)CC1	99
CCOc1ccc(NC(=O)c2sc(=S)n(-c3cccc(OC)c3)c2N)cc1	105
Cc1ccc(S(=O)(=O)NCc2ccc(-c3nn4cnnc4s3)cc2)cc1	105
CCC(C)(C)NS(=O)(=O)c1cc(-c2nnc(C)o2)cs1	102
Cc1c(Cl)cccc1NC(=O)CCc1nc(CSc2nc(-c3ccccc3)cs2)no1	108
O=S(=O)(NC1CCCCC1)c1ccc(-c2cnc(C3CCC3)o2)s1	104
Cc1c(C(=O)Nc2nc3ccccc3s2)sc2ncn(Cc3cccc(F)c3)c(=O)c12	101
Cc1nc(-c2cc(S(=O)(=O)NCc3ccc(Br)cc3)c(C)s2)cs1	96
CCOC(=O)c1c(NC(=O)CSc2nnc(CNC(=O)COc3ccc(Cl)cc3Cl)n2C)sc2c1CCC2	102
CCSc1nnc(-c2nn(C)c3c2CN(S(=O)(=O)Cc2ccccc2Cl)CC3)n1CC	104
CCOc1ccc(-n2c(=S)sc3c2nc(SCc2cc(=O)n4cc(Cl)ccc4n2)n2c4ccccc4nc32)cc1	114
